Assay outcomes deposited in PubChem BioAssay by ICCB-Longwood Screening Facility, Harvard Medical School.
Anaer choline gr – blocks anaerobic gram-negative growth on choline; hit rate 0.2% among 55,000; AID 1963822; Gram-negative bacterium anaerobic choline minimal medium, absorbance growth; active compounds read low; many inactives read as strong as hits in the columns shown; calls only;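 active = growth z-score on choline under -2 at 7 or 20 h with little or no fall on glycerol, limits in tiers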;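 also: stock transfer was 300 nL into about 50 µL; the organism is E. coli; final concentration not given here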
Anaer choline gr early – also measured in Anaer choline gr; calls as there; z-score; measured here: choline growth z-score, timepoint 1;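 score of optical density at 7 h as mean of two plates; lower means less growth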
An asterisk follows results filed as active; & = joins results of further samples.

For CCn1cc(S(=O)(=O)N2CCCn3nc(-c4ccncc4)cc3C2)cn1 the results were Anaer choline gr inactive and Anaer choline gr early 0.57.
`Cc1cccc(CNC(=O)C2CCCN(S(=O)(=O)Cc3ccccc3)C2)c1` (stereo not given) gave Anaer choline gr inactive and Anaer choline gr early -0.11.
For COCCNC(=O)c1cnc2sccn2c1=O the results were Anaer choline gr inactive and Anaer choline gr early 0.1.
For Cc1ncc(CSSCc2cnc(C)c(O)c2CO)c(CO)c1O the results were Anaer choline gr inactive and Anaer choline gr early -0.01.
For Cc1ccc(N2CCn3c2nc2c3c(=O)n(CC(=O)O)c(=O)n2C)cc1C the results were Anaer choline gr inactive and Anaer choline gr early -0.1.
`C=C(C)Cn1c(C2CCCN2C(C)=O)nc2ccccc21` (stereo not given) gave Anaer choline gr inactive and Anaer choline gr early -0.53.
c1ccn2cc(CN3CCSCC3)nc2c1 was read as Anaer choline gr inactive and Anaer choline gr early 0.06.
CN(Cc1ccccc1)C(=O)C1CCC(CNS(=O)(=O)c2ccc3c(c2)CCCC(=O)N3)CC1 (stereo not given) was read as Anaer choline gr inactive and Anaer choline gr early 0.81.
`Cc1ccccc1-c1cc(N2CCN(C(=O)NC(C)(C)C)CC2)ncn1` gave Anaer choline gr inactive and Anaer choline gr early -0.17.
For COc1ccc(NC(=O)C2CCCN(c3nccnc3Sc3ccc(C)cc3)C2)cc1 (stereo not given) the results were Anaer choline gr inactive and Anaer choline gr early 1.2.
For O=C1CC(c2ccc(OCCc3ccccc3)cc2)c2cnn(-c3nc4ccccc4s3)c2N1 (stereo not given) the results were Anaer choline gr inactive and Anaer choline gr early -0.83.
Screening COc1ccc(OC)c(NS(=O)(=O)c2c(C)nn(-c3ccc(-c4ccc(C)cc4)nn3)c2C)c1 returned Anaer choline gr inactive and Anaer choline gr early 2.1.
Cc1c(O)cccc1C(=O)NC(CSc1ccccc1)C(O)CN1C[C@H]2CCCC[C@H]2CC1C(=O)NC(C)(C)C (stereo not given in full) was read as Anaer choline gr inactive and Anaer choline gr early 0.45.
For COc1ccccc1CNC(=O)c1cccc(NC(=O)c2nnc(COc3ccc(Cl)cc3)s2)c1 the results were Anaer choline gr inactive and Anaer choline gr early 0.97.
Screening CCN(CC)S(=O)(=O)c1ccc(NC(=O)N2CCCC(C(=O)Nc3cccc(Cl)c3)C2)s1 (stereo not given) returned Anaer choline gr inactive and Anaer choline gr early -0.13.
Cc1nn(-c2ccc(Cl)cc2)c2sc(C(=O)NC3CCCCC3)cc12 was read as Anaer choline gr inactive and Anaer choline gr early 0.46.
`CCN(Cc1ccc(F)cc1)Cc1cc(=O)n2nc(C3CC3)sc2n1` gave Anaer choline gr inactive and Anaer choline gr early -0.17.
`Cc1ccc(-c2noc(-c3c(C)cc(C)n(CC(=O)NCCc4ccccc4)c3=O)n2)cc1` gave Anaer choline gr inactive and Anaer choline gr early 0.11.
For O=C1COc2ccc(S(=O)(=O)N3CCN(C(=O)Cc4ccccc4Br)CC3)cc2N1 the results were Anaer choline gr inactive and Anaer choline gr early 0.06.
For c1cc(N2CCOCC2)ncc1-c1noc(CN2CCSCC2)n1 the results were Anaer choline gr inactive and Anaer choline gr early -0.87.

Next section (3 carried over from the part before).
`Cc1ccc(-c2noc(-c3c(C)cc(C)n(CC(=O)NCCc4ccccc4)c3=O)n2)cc1` gave Anaer choline gr inactive and Anaer choline gr early 0.11.
For O=C1COc2ccc(S(=O)(=O)N3CCN(C(=O)Cc4ccccc4Br)CC3)cc2N1 the results were Anaer choline gr inactive and Anaer choline gr early 0.06.
For c1cc(N2CCOCC2)ncc1-c1noc(CN2CCSCC2)n1 the results were Anaer choline gr inactive and Anaer choline gr early -0.87.
Screening CCSc1nn(CC(=O)Nc2ccc(C(C)C)cc2)c(N)c1S(=O)(=O)c1ccc(C)cc1 returned Anaer choline gr inactive and Anaer choline gr early 0.74.
Screening CC(C)(C)n1nc2c(c1NC(=O)c1ccc(Br)cc1)CS(=O)(=O)C2 returned Anaer choline gr inactive and Anaer choline gr early -0.31.
For Cc1occc1-c1nnc(SCC(=O)N(C)C2CCCCC2)o1 the results were Anaer choline gr inactive and Anaer choline gr early 0.55.
For CSc1nc2nc3c(cn2n1)C(=O)CC(C)C3 (stereo not given) the results were Anaer choline gr inactive and Anaer choline gr early -1.5.
For O=C(NCCc1csc(C2CCN(C(=O)c3ccsc3)CC2)n1)C1CCC1 the results were Anaer choline gr inactive and Anaer choline gr early -0.59.
`c1ccc2c(N3CCC(N4CCCCC4)CC3)nnc(Cc3ccncc3)c2c1` gave Anaer choline gr inactive and Anaer choline gr early 0.69.
Screening Cc1ccc(N2CCn3c(nc4ccccc43)C2)cc1NS(C)(=O)=O returned Anaer choline gr inactive and Anaer choline gr early -0.05.
For Cc1ccccc1-c1nc2scc(CCNC(=O)COc3ccccc3)n2n1 the results were Anaer choline gr inactive and Anaer choline gr early -1.3.
`CS(=O)(=O)CCNCc1ccc(-c2ccc3ncnc(Nc4ccc(OCc5cccc(F)c5)c(Cl)c4)c3c2)o1` gave Anaer choline gr inactive and Anaer choline gr early 1.5.
`COc1ccc(-c2nn3c(=O)cc(CN4CCN(C(=O)c5ccc(OC)c(OC)c5)CC4)nc3s2)cc1` gave Anaer choline gr inactive and Anaer choline gr early -0.09.
For CCc1nc(-c2csc(S(=O)(=O)N3CCc4ccccc43)c2)no1 the results were Anaer choline gr inactive and Anaer choline gr early 1.7.
COc1ccc(Cl)cc1Nc1nc2ccccc2c2nncn12 was read as Anaer choline gr inactive and Anaer choline gr early 0.43.
For O=C(CCc1nc(CSc2nnc(-c3cccnc3)o2)no1)Nc1cc(F)cc(F)c1 the results were Anaer choline gr inactive and Anaer choline gr early -0.85.
Screening Cc1[nH]c(C(=O)N2CCN(c3ccccc3F)CC2)c(C)c1S(=O)(=O)N1CCC(C)CC1 returned Anaer choline gr inactive and Anaer choline gr early 0.61.
Screening Cc1cc(-c2nc3ccccc3s2)ccc1NC(=O)c1ccc2c(c1)OCCO2 returned Anaer choline gr inactive and Anaer choline gr early 0.
For COc1cccc(-c2csc(-c3nnn(-c4cccc(Cl)c4)c3N)n2)c1 the results were Anaer choline gr inactive and Anaer choline gr early 0.46.
Screening CC(C)n1cnnc1C1CCCN(Cc2cn[nH]c2-c2cccs2)C1 (stereo not given) returned Anaer choline gr inactive and Anaer choline gr early -0.35.
`Cc1cccc(NC(=O)NCc2nnnn2-c2ccccc2)c1` gave Anaer choline gr inactive and Anaer choline gr early -0.43.
Screening COc1ccc(CNC(=O)C2(C)Cc3ccccc3C(=O)N2C2CCCCC2)cc1 (stereo not given) returned Anaer choline gr inactive and Anaer choline gr early -0.28.
`Cc1[nH]nc(-c2ccc(S(=O)(=O)NC3CC3)o2)c1C` gave Anaer choline gr inactive and Anaer choline gr early -0.39.

By substructure: the compounds so far with a furan ring, fused or not (3)
For Cc1occc1-c1nnc(SCC(=O)N(C)C2CCCCC2)o1 the results were Anaer choline gr inactive and Anaer choline gr early 0.55.
`CS(=O)(=O)CCNCc1ccc(-c2ccc3ncnc(Nc4ccc(OCc5cccc(F)c5)c(Cl)c4)c3c2)o1` gave Anaer choline gr inactive and Anaer choline gr early 1.5.
`Cc1[nH]nc(-c2ccc(S(=O)(=O)NC3CC3)o2)c1C` gave Anaer choline gr inactive and Anaer choline gr early -0.39.

Later entries:
`O=C(Nc1cc(F)ccc1F)C1CCCN(c2nc3cccnc3s2)C1` (stereo not given) gave Anaer choline gr inactive and Anaer choline gr early 0.47.
Screening Cc1ccc(NC(=O)Cn2nc3c(Oc4ccccc4C)nc4ccccc4n3c2=O)cc1 returned Anaer choline gr inactive and Anaer choline gr early -1.6.
For CCOc1ccc(-c2nc(SCC(=O)Oc3ccc(C)cc3)n3[nH]c(=O)cc3n2)cc1 the results were Anaer choline gr inactive and Anaer choline gr early 0.01.
Screening COc1cccc(C2=CC(c3ccc(Cl)cc3)n3ncc(C(=O)Nc4cc(Cl)ccc4C)c3N2)c1 (stereo not given) returned Anaer choline gr inactive and Anaer choline gr early 0.01.
Screening CC1Cc2cc(-c3cc(C(=O)Nc4nnc(C(C)C)s4)no3)ccc2O1 (stereo not given) returned Anaer choline gr inactive and Anaer choline gr early 1.1.
Screening Cc1ccc(CCN2C(=O)c3cc4ccsc4n3CC2(C)C(=O)NC2CCCC2)cc1 (stereo not given) returned Anaer choline gr inactive and Anaer choline gr early 2.1.
`C=Cc1ccc(Cn2nc3c(S(=O)(=O)N4CCCCCC4)cccn3c2=O)cc1` gave Anaer choline gr inactive and Anaer choline gr early 2.1.
Screening C=CCN(CC=C)C(=O)c1ccc(N2CCNCC2)c(NS(C)(=O)=O)c1 returned Anaer choline gr inactive and Anaer choline gr early -0.73.
Screening COc1ccc(N2C(=O)c3ccccc3C2C(=O)NCCC(C)C)cc1OC (stereo not given) returned Anaer choline gr inactive and Anaer choline gr early -0.13.
`Cc1ccc2cccc(NC(=O)c3ccccc3)c2n1` gave Anaer choline gr inactive and Anaer choline gr early 0.13.
For O=C(COc1ccccc1Cl)Nc1ccccc1OCc1cc(=O)n2c3c(sc2n1)CCCC3 the results were Anaer choline gr inactive and Anaer choline gr early -0.76.
`O=C(Nc1ccccc1Cl)N1CCN(Cc2nc3cccnc3n2-c2ccccc2)CC1` gave Anaer choline gr inactive and Anaer choline gr early 0.16.
Cn1c(SCC(=O)Nc2ccc(F)cc2)nnc(CCC(=O)N2CCCC2)c1=O was read as Anaer choline gr inactive and Anaer choline gr early 0.09.
O=C(NC1CCCC1)C1CCN(C(=O)c2ccc(-c3noc(C4CC4)n3)cc2)CC1 was read as Anaer choline gr inactive and Anaer choline gr early -0.24.
`Cc1ccnc(NC(=O)CN2C(=O)C(C)(C)c3ccccc32)c1` gave Anaer choline gr inactive and Anaer choline gr early 0.07.
Screening COc1ccc(O)cc1 returned Anaer choline gr inactive and Anaer choline gr early -0.01&-0.29.
`CCOC(=O)CN(C)c1ccc(NC(C)=O)cc1C(=O)O` gave Anaer choline gr inactive and Anaer choline gr early -0.04.
Screening COc1ccccc1N1CCN(C(=O)C(C)N(c2ccccc2)S(C)(=O)=O)CC1 (stereo not given) returned Anaer choline gr inactive and Anaer choline gr early 0.6.
Brc1cccc(-c2nn3c(-c4ccccn4)nnc3s2)c1 was read as Anaer choline gr inactive and Anaer choline gr early -0.17.
For O=C(Nc1noc2ccccc12)c1cccc(F)c1 the results were Anaer choline gr inactive and Anaer choline gr early -1.1.
For COc1cccc(NC(=O)N2CCN(Cc3nc(-c4ccccc4)oc3C)CC2)c1 the results were Anaer choline gr inactive and Anaer choline gr early -1.6.
CC(C)NC(=O)CCn1c(=O)c2ccccc2n2c(=O)n(CC(=O)NC3CCCC3)nc12 was read as Anaer choline gr inactive and Anaer choline gr early -1.7.
For CCCCOC(=O)c1cn(CC)c2nc(C)ccc2c1=O the results were Anaer choline gr inactive and Anaer choline gr early -1.5.
For COc1ccc(N2C(=O)CCS2(=O)=O)cc1S(=O)(=O)Nc1ccc2c(c1)OCO2 the results were Anaer choline gr inactive and Anaer choline gr early 0.44.
O=C(NCCN1CCC(Cc2ccccc2)CC1)C(c1ccccc1)N1Cc2ccccc2C1=O (stereo not given) was read as Anaer choline gr inactive and Anaer choline gr early 1.6.
`CNC(=O)c1ccc(-c2nc(CN3CCN(C(=O)Nc4ccc(F)cc4)CC3)c(C)o2)cc1` gave Anaer choline gr inactive and Anaer choline gr early 0.52.
Screening COc1ccc(Nc2ccc3cc(S(=O)(=O)N4CCCCC4)ccc3n2)cc1OC returned Anaer choline gr inactive and Anaer choline gr early 2.5.
COc1ccc(C2CC(=O)NC3=C2C(=O)CCC3)cc1 (stereo not given) was read as Anaer choline gr inactive and Anaer choline gr early -1.
COc1cc(NC(=O)Nc2ccc(Nc3cc(N(C)C)nc(C)n3)cc2)cc(OC)c1 was read as Anaer choline gr inactive and Anaer choline gr early -0.2.
CCn1c(=O)c(C)nc2cc(C(=O)NCc3ccc(Cl)cc3)ccc21 was read as Anaer choline gr inactive and Anaer choline gr early -0.36.
`CCc1ccc(CNC(=O)C2CCCN(c3ncnc4c3oc3ccccc34)C2)cc1` (stereo not given) gave Anaer choline gr inactive and Anaer choline gr early -1.3.
Screening CC(C)OC(=O)c1cc2c(OCC(O)CNC(C)(C)C)cccc2[nH]1 (stereo not given) returned Anaer choline gr inactive and Anaer choline gr early 1.1.
`O=C(O)c1cnn(-c2ccccc2)c1-n1cccc1CNCc1ccc(Cl)cc1` gave Anaer choline gr inactive and Anaer choline gr early -1.1.
For Cc1ccc(NC(=O)N2CCN(C(=O)c3nsc4ccccc34)CC2)cc1C the results were Anaer choline gr inactive and Anaer choline gr early 0.53.
`Cc1[nH]ncc1CNC(=O)c1ccc(Cn2c(=O)c3cccn3c3cccnc32)cc1` gave Anaer choline gr inactive and Anaer choline gr early -0.52.
`Cc1nn2cnnc2c(C)c1CCC(=O)NC1CCCCC1` gave Anaer choline gr inactive and Anaer choline gr early -0.42.
CCOC(=O)O[C@]1(C(=O)OCCl)CCC2C3CCC4=CC(=O)C=C[C@]4(C)C3C(O)C[C@@]21C (stereo not given in full) was read as Anaer choline gr inactive and Anaer choline gr early -0.98.
For CCC(C(=O)Nc1ccc2c(c1)nc(CCc1ccccc1)n2C)N1C(=O)COc2ccccc21 (stereo not given) the results were Anaer choline gr inactive and Anaer choline gr early 0.71.
Screening COc1ccc(C2CC(=O)C3=C(C2)Nc2ccccc2NC3c2cccc(F)c2)cc1 (stereo not given) returned Anaer choline gr inactive and Anaer choline gr early -0.37.
Screening CCN1CCN(c2ncnc3sc(C(=O)N4CCC(N5CCCCC5)CC4)c(C)c23)CC1 returned Anaer choline gr inactive and Anaer choline gr early -0.06.

Among those listed so far, 3 have a COOH group:
For Cc1ccc(N2CCn3c2nc2c3c(=O)n(CC(=O)O)c(=O)n2C)cc1C the results were Anaer choline gr inactive and Anaer choline gr early -0.1.
`CCOC(=O)CN(C)c1ccc(NC(C)=O)cc1C(=O)O` gave Anaer choline gr inactive and Anaer choline gr early -0.04.
`O=C(O)c1cnn(-c2ccccc2)c1-n1cccc1CNCc1ccc(Cl)cc1` gave Anaer choline gr inactive and Anaer choline gr early -1.1.

A portion of the library; count on the stated rates, not on these rows.
